ALR H2O2 inh: human ALR oxidase inhibition via reduced H2O2; P55789; purified ALR, DTT oxidation, H2O2 HRP-luminol luminescence; inhibition, % (no concentration beside the values); hit rate 3.8% among 290,000; AID 485317;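 active = mean and each replicate at 75% or more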;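 note: stock transfer was 7.5 nL into about 7.5 µL; 0% = neutral wells and 100% = wells with inactivated enzyme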
Target sequence (P55789 whole entry, looked up): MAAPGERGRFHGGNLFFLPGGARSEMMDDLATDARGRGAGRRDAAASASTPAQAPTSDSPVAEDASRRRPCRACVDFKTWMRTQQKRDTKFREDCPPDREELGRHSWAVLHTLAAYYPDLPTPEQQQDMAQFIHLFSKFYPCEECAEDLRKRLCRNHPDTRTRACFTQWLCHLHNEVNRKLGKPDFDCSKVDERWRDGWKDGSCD
Beta2AR agonist: human beta-2 adrenergic receptor agonism by FAP | P07550 | Am2.2-beta2AR cells, FAP receptor internalization, flow cytometry; reference of the scale not given here | response, % (concentration not given with the values) | hit rate 0.43% among 340,000 | AID 504454;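 active = response above a set limit, near 3 SD of response in nonfluorescent compounds, cut at about 42% in these data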;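 note: stock transfer was 100 nL into about 11 µL; a reference agonist was the positive control; negative values mostly stem from fluorescent compounds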
rRNA inh HTS: selective bacterial rRNA inhibition in E. coli. GFP signal change (wild-type ribosome), % (test concentration not listed). E. coli WT GFP vs humanized-ribosome RFP mutants, fluorescence, 24 h; stronger effect = lower value; DMSO median 0, no signal -100. hit rate 1.6% among 350,000;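 active = significant combined selectivity score with lowered wild-type GFP, culture density cut under 30%, mutant RFP and density less affected; inactive = any of these conditions unmet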; note: one replicate is shown; some compounds called inactive have numbers as strong as hits
E coli growth: blocks Escherichia coli growth; AID 1053175; OD600, 23 h; stronger effect = lower value; hit rate 0.21% among 330,000; OD600 absorbance (concentration not given with the values);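 active = OD600 absorbance below the run mean of sample wells minus 3.6 SD, in any replicate, cut at about 0.56 in these data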;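 note: stock transfer was 300 nL into about 60 µL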
FGF22 binding: FGF22 (human) thermal shift binding; Q9HCT0; recombinant FGF22 thermal shift, SYPRO orange fluorescence; percent of sucrose octasulfate shift, DMSO zero; calls only at 9.99 µM; hit rate 1.5% among 340,000;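 active = melting point raised past a set limit in the mean and every replicate; three in four hits are not shown here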
Target sequence (Q9HCT0 whole entry, looked up): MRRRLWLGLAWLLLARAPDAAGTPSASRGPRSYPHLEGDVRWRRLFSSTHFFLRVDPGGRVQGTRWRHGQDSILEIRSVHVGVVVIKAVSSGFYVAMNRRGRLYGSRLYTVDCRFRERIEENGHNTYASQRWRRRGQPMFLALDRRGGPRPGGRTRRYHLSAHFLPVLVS
UCH37 DUB inh: blocks the human deubiquitinase UCH37 | hit rate 0.33% among 330,000 | AID 588478 | purified proteasome/UCH37, Ub-AMC cleavage fluorescence | inhibition, % (test concentration not listed);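 active = mean of two replicates above 20%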;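 note: 0% = compound-free wells with enzyme and 100% = wells lacking proteasome; stock transfer was 100 nL into about 20 µL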
Target sequence (Q9Y5K5 whole entry, looked up): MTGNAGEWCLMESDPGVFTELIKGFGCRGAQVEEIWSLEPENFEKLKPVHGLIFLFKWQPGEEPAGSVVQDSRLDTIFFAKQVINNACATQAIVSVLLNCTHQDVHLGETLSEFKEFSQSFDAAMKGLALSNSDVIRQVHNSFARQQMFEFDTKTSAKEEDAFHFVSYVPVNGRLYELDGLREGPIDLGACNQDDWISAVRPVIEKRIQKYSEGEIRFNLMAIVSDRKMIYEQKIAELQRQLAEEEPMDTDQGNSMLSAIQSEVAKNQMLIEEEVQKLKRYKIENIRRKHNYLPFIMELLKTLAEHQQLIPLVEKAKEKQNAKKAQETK
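Signal – fluorescence, ex 355 nm, em 460 nm · System – Proteasome-bound UCH37 · Input – 0.15 nM proteasome as dispensed · Timing – 30 min preincubation with enzyme, 25 min cleavage at room temperature · Read-out basis – percent inhibition of cleavage signal versus uninhibited and no-proteasome wells · Medium – Tris-HCl pH 7.4 with ATP-MgCl2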
HNF4A DNA FP: change in binding of human HNF4 alpha to DNA; HNF4a-FITC DNA binding, fluorescence polarization, 1 h; activity change, % at 10 µM; hit rate 0.3% among 360,000; AID 1224865; in the data active = activity change above about 30%, passing the limit was not always enough;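 note: controls were the assay level and a saturating level of protein; the project sought stronger binding though the title names inhibitors; some compounds called inactive have numbers as strong as hits; positive values seem to mean higher polarization but the record does not say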
rRNA inh HTS OD600: also measured in rRNA inh HTS; calls as there; OD600 change, %; measured here: OD600 growth;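 optical density of the mix in the first replicate; 0 = DMSO median and -100 = no signal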
rRNA inh HTS RFP: also measured in rRNA inh HTS; calls as there; RFP signal change, %; measured here: RFP humanized mutant strains;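 first replicate; 0 = DMSO median and -100 = no signal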
Active calls of the source: *; i = inactive; · = no result given. A portion of the library. The share of hits here may be higher or lower than overall.

SMILES	ALR H2O2 inh	Beta2AR agonist	rRNA inh HTS	rRNA inh HTS OD600	rRNA inh HTS RFP	E coli growth	FGF22 binding	UCH37 DUB inh	HNF4A DNA FP
CC1(C)CC2(CCO1)OC(=O)CC2C(=O)Nc1cccc2ccccc12 (stereo not drawn)	-71	-2	·	·	·	0.71	·	-0.8	-0.4
CCOc1ccc(S(=O)(=O)Nc2ccc(C(=O)N(C)CC(=O)Nc3ccc(OC)cc3)cc2)cc1	-2	1	-3	-3	3.9	0.7	i	1.7	4.0
Nc1nn(-c2ccccc2Cl)cc1-c1nn[nH]n1	-3	-5	9	2	-1.1	0.65	i	1.0	4.9
COc1cccc(N2CCN(CC(=O)NC3=Nc4ccccc4N=C(C)C3c3ccccc3)CC2)c1 (stereo not drawn)	·	2	-16	2	11	·	i	·	-4.1
COc1cccc(CNc2ncnc3cc(OC)c(OC)cc23)c1	-22	-18	·	·	·	0.78	·	3.5	-3.8
COc1ccc(NC(=S)NNC(=O)c2cccs2)cc1	50	10	·	·	·	0.65	·	5.0	-1.9
c1ccc(NC2=NCCN2CCCC2CCCC2)cc1	·	3	8	2	2.4	0.7	i	1.9	-0.9
CCc1ccc(OCC(O)CN2CCN(c3ccc(OC)cc3)CC2)cc1 (stereo not drawn)	94*	-1	-5	-16	0.5	0.59	i	4.6	3.5
COc1cc2[nH]c(C(=O)NCCc3ccccc3)cc2c(OC)c1OC	-8	-3	-16	-25	-6.9	0.69	i	-16	3.1
COc1cccc(NC(=O)Cc2c(C(=O)O)[nH]c3ccccc23)c1	3	-12	·	·	·	0.6	·	1.0	-2.6
O=C(CCc1ccccc1)NNC(=O)c1cc(Cl)ccc1O	1	4	-21	-17	-5.9	0.65	i	-235	-3.6
CN1OC[C@@H]2CN(C(=O)CCc3ccccc3)[C@H](c3cccc(Oc4ccccc4)c3)C[C@@H]21	·	-12	-10	-31	-3.3	·	i	·	1.3
CCN1C(=O)[C@@H]2[C@@H](c3ccc(-c4ccc5c(c4)OCO5)cc3)N3CCCC[C@@]3(C(=O)OC)[C@@H]2C1=O	2	6	-1	-2	0.3	·	i	-1.9	-4.8
O=C(CCSCc1cccc(Cl)c1)NCCc1ccc(Cl)cc1	-15	-170	·	·	·	0.67	·	1.2	-1.0
COc1ccccc1NS(=O)(=O)c1ccc(C)c(NC(=O)NCCCl)c1	-3	2	8	10	-5.2	0.67	i	2.0	0.9
Cc1cccc(Cc2nnc(CCC(=O)NCc3cn4ccccc4n3)o2)c1	0	3	-12	-10	-5.4	0.69	i	1.4	0.3
CC(C)C(NC(=O)OCc1ccccc1)C(=O)OCC(=O)NCc1ccco1 (stereo not drawn)	-7	6	·	·	·	0.7	·	-3.6	-7.3
O=C(Cc1ccc(F)cc1)N/N=C/c1ccc2c(c1)OCO2	0	0	14	9	-1.1	·	i	·	0.8
COc1ccc(Nc2nc(C)cc(-c3cc(-c4ccccc4)on3)n2)cc1	·	-3	2	6	3.0	0.73	i	4.8	-1.6
COC(=O)/C(C#N)=C/c1c(-c2ccccc2)nc2n1CCS2	9	-11	16	-1	1.8	0.66	i	4.0	6.5
CCN(CC)C(=O)[C@H]1C[C@H](CC(=O)NCC23CC4CC(CC(C4)C2)C3)C(=O)N2CCc3c([nH]c4cc(-c5ccco5)ccc34)[C@]12C	·	6	10	7	4.5	0.7	i	-19	1.0
COc1ccccc1NC(=O)C1CCCN1C(=O)NC1CCCCC1 (stereo not drawn)	-5	4	4	12	-0.9	0.73	i	1.5	-0.5
CS(=O)(=O)N1N=C(c2cccs2)CC1c1ccccc1 (stereo not drawn)	-10	14	6	-4	-8.4	0.69	i	3.8	1.9
O=C(CCCSc1nc2ccccc2c(=O)[nH]1)c1ccc(F)cc1	5	14	2	-3	1.2	0.72	i	4.1	-4.6
NC(=O)C1(c2ccccc2)CCCN1C(=O)c1ccc(Br)cc1 (stereo not drawn)	3	-4	7	0	1.3	0.72	i	2.5	2.9

Complete entries, quoted from the list. Order of values: ALR H2O2 inh | Beta2AR agonist | rRNA inh HTS | rRNA inh HTS OD600 | rRNA inh HTS RFP | E coli growth | FGF22 binding | UCH37 DUB inh | HNF4A DNA FP
Entry for c1ccc(NC2=NCCN2CCCC2CCCC2)cc1 = · | 3 | 8 | 2 | 2.4 | 0.7 | i | 1.9 | -0.9
Entry for CC(C)C(NC(=O)OCc1ccccc1)C(=O)OCC(=O)NCc1ccco1 (stereo not drawn) = -7 | 6 | · | · | · | 0.7 | · | -3.6 | -7.3

Later entries:
SMILES	ALR H2O2 inh	Beta2AR agonist	rRNA inh HTS	rRNA inh HTS OD600	rRNA inh HTS RFP	E coli growth	FGF22 binding	UCH37 DUB inh	HNF4A DNA FP
Cc1cccc(/C=N\Nc2cn[nH]c(=O)c2Cl)c1	-15	3	-10	-22	-3.6	·	·	·	1.6
CN1CCN(NS(=O)(=O)c2ccc(Cl)cc2)CC1	·	-1	5	5	-2.1	0.68	i	4.0	-2.0
COc1ccccc1-n1c(SCC(=O)N2CCOCC2)nc(O)cc1=O	-3	0	13	6	5.2	0.72	i	5.0	2.3
NCCCC[C@H](N)c1nnc([C@H](CC(=O)O)NC(=O)C2CCNCC2)o1	·	5	20	8	-5.2	·	i	-1.7	4.6
O=C(NCc1ccc(F)cc1)N[C@@H](Cc1ccccc1)C(=O)O	-1	0	·	·	·	0.71	·	4.0	1.8
CS(=O)c1ccccc1O (stereo not drawn)	-5	7	20	18	0.9	0.75	i	1.8	6.3
NC(CCC(=O)O)C12CC3CC(CC(C3)C1)C2 (stereo not drawn)	1	5	26	20	1.0	0.64	i	-2.6	0.1
CCc1nc2c(OCc3cc(Cl)cc(Cl)c3)cccn2c1N(C)C(=O)c1ccc(OC)cc1	·	·	6	12	4.7	·	i	·	1.4
CC(=O)Nc1ccccc1Nc1cc(C#N)c(C#N)cc1[N+](=O)[O-]	-99	-4	·	·	·	0.65	·	5.2	-3.7
O=C1C=C(c2cccc(Cl)c2)C[C@@H](c2ccc(Cl)cc2)C1	3	25	-12	-19	-20	·	i	1.2	-1.8
CCn1c(SCC(=O)Nc2cc(C)on2)nnc1-c1ccc(S(=O)(=O)N2CCCC2)cc1	5	-8	1	4	0.7	0.71	·	2.1	-3.2
CNc1ccc(Br)cc(C(=O)/C=C/c2cccc(OC)c2OC)c1=O	6	14	·	·	·	0.7	·	14	0.1
COc1cc(OC)c(OC)cc1CN1CCN(Cc2ccco2)CC1	-1	-8	19	12	3.6	0.71	i	2.2	0.9
CC(=O)N1CC(=O)N(CC(=O)Nc2ccc(Br)cc2)C1=S	99*	4	8	10	0.0	0.71	i	-1.6	-0.2
CCN(CC)S(=O)(=O)c1ccc(C(=O)NC(=S)N2CCN(c3ccccc3O)CC2)cc1	·	·	-9	-10	-0.1	·	i	·	-6.3
Cc1ccc(CN2C(=O)C(Cc3ccccc3)Nc3ncnc(N4CCN(c5ccccc5)CC4)c32)cc1 (stereo not drawn)	3	7	6	6	3.4	0.71	i	3.2	3.6
COc1ccc(C=O)cc1COc1ccc2c(c1)OCO2	·	1	1	-4	-0.5	0.68	i	4.3	5.0
COCCCN1C(=O)C(O)=C(C(=O)c2ccco2)C1c1ccc(Br)cc1 (stereo not drawn)	5	-3	·	·	·	0.7	·	4.8	-2.6
O=C1CC(=O)CC(c2ccccc2Cl)C1	-3	2	·	·	·	0.74	·	0.0	4.1
CCN(CC(=O)NCc1cccs1)C(=O)c1cc(Br)ccc1O	25	-5	0	3	7.9	0.72	i	-2.7	2.7
CN1C(=O)c2c(C(=O)Nc3ccc(Oc4ccncc4)cc3)[nH]c(-c3ccccc3)c2C1=O	·	·	-2	7	-3.3	·	i	·	3.6
CCCC1(C(=O)O)NC(c2ccc(OC)cc2O)C2C(=O)N(c3ccc(OC)cc3)C(=O)C21 (stereo not drawn)	-49	-6	2	-7	0.2	0.77	i	3.2	1.5
COc1ccccc1-n1c(=S)sc2c(=O)n(Cc3ccco3)c(SC)nc21	-5	14	·	·	·	0.68	·	5.8	-3.7
CCC(=O)N1CCCn2c1nc1ccccc12	0	-3	·	·	·	0.66	·	1.9	1.1
COc1ccc(-c2nn(-c3ccccc3)cc2C(=O)n2nnc3ccccc32)cc1	8	4	0	8	1.3	0.71	·	-39	-0.5

Retrieved by structure from above, five records:
SMILES	ALR H2O2 inh	Beta2AR agonist	rRNA inh HTS	rRNA inh HTS OD600	rRNA inh HTS RFP	E coli growth	FGF22 binding	UCH37 DUB inh	HNF4A DNA FP
CCN(CC(=O)NCc1cccs1)C(=O)c1cc(Br)ccc1O	25	-5	0	3	7.9	0.72	i	-2.7	2.7
CN1CCN(NS(=O)(=O)c2ccc(Cl)cc2)CC1	·	-1	5	5	-2.1	0.68	i	4.0	-2.0
O=C(NCc1ccc(F)cc1)N[C@@H](Cc1ccccc1)C(=O)O	-1	0	·	·	·	0.71	·	4.0	1.8
COc1cc(OC)c(OC)cc1CN1CCN(Cc2ccco2)CC1	-1	-8	19	12	3.6	0.71	i	2.2	0.9
CCCC1(C(=O)O)NC(c2ccc(OC)cc2O)C2C(=O)N(c3ccc(OC)cc3)C(=O)C21 (stereo not drawn)	-49	-6	2	-7	0.2	0.77	i	3.2	1.5

Continued.
SMILES	ALR H2O2 inh	Beta2AR agonist	rRNA inh HTS	rRNA inh HTS OD600	rRNA inh HTS RFP	E coli growth	FGF22 binding	UCH37 DUB inh	HNF4A DNA FP
Cc1ccccc1C(=O)NCCCNC(=O)c1ccccc1C	19	4	13	0	0.9	0.65	i	0.7	2.3
COc1cccc(C(Nc2ccccn2)c2oc(CO)cc(=O)c2O)c1 (stereo not drawn)	·	-6	4	5	-4.7	0.73	i	1.2	-0.3
COc1ccccc1C(=O)NCCn1cc(SCC(=O)Nc2nnc(C)s2)c2ccccc21	10	-3	0	-8	-4.0	0.69	·	5.1	1.9
Cc1c(C)c2ccc(OC(C)C(=O)N[C@@H](Cc3c[nH]c4ccccc34)C(=O)O)c(C)c2oc1=O (stereo partly drawn)	-4	0	-6	-2	-2.2	0.65	i	-18	0.3
COc1ccc(CCNC(=O)COC(=O)/C=C/c2cccc(F)c2)cc1	9	-5	-1	-8	-0.8	0.72	i	0.0	1.2
O=C(c1cc(Cl)ccc1Cl)N1CCOCC1	-20	2	10	8	8.5	0.72	i	1.6	0.0
O=C(CCNC(=O)c1ccc(Br)cc1)Nc1ccc(S(=O)(=O)N2CCOCC2)cc1	·	5	·	·	·	0.68	i	0.8	0.7
CN(C)c1cccc(C(=O)NNC(=S)NC2CCCC2)c1	99*	2	7	4	1.9	0.68	i	-2.1	-1.0
CCCCN(C=O)c1c(CC)nc2ccc(C(=O)N3CCN(C)CC3)cn12	·	·	6	11	-0.8	·	i	·	2.0
CC(=O)c1cc2c(cc1NC(=O)CN1CCN(c3cccc(C(F)(F)F)c3)CC1)OCO2	-1	3	·	·	·	0.72	·	-56	0.9
Cc1ccnn1CCC(=O)O	0	12	16	6	-0.2	0.7	i	1.1	-0.1
OCCN1CNC(=S)NC1	-12	-1	-16	-12	0.9	0.7	i	2.2	1.7
CCCCOc1cccc(OCC(=O)Nc2nc3ccccc3[nH]2)c1	1	-23	·	·	·	0.71	·	4.0	2.9
Cc1cccc(C)c1OCC(=O)Nc1ccc(N2CCOCC2)cc1	-2	-8	0	-4	-1.3	0.69	i	-2.7	-0.2
CCCn1c(SCc2nc3sc(C)c(C)c3c(=O)[nH]2)nc2ccccc2c1=O	-7	-9	·	·	·	0.67	·	2.4	20
